ClpP mod = qHTS Assay for Activators of ClpP | ATP-dependent Clp protease proteolytic subunit (Bacillus subtilis (strain 168)), P80244 | purified B. subtilis ClpP, FRET peptide cleavage, 20 min | Potency, µM (highest dose often 57.5 µM), without a hit: at the highest dose activity change, negative = active | actives 1.9% (n = 340,000); active = well fitted falling curve with a large enough effect; inconclusive = small, poorly fitted or top-dose-only effect; inactive = no such curve, though single readings can be large or run the other way; also: the source files actives as falling curves though it sought activators and does not explain the sign; nearly all actives have a fitted effect of over 65% in size; many hits overshoot -100%
Target sequence (P80244 whole entry, looked up): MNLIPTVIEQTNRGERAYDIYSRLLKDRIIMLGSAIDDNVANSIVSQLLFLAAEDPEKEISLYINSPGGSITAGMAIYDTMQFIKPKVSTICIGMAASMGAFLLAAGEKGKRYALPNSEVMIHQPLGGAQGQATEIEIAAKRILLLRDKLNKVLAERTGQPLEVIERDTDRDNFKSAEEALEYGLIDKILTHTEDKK
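Buffer: 100 mM Tris/HCl pH8, 100 mM KCl, 0.05% low protease BSA, 2.5% glycerol, 0.01% Tween-20. ClpP 10 microg/mL final; 20 min RT; delta FRET normalized to ADEP and DMSO controls.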
An asterisk follows results filed as active; ? = inconclusive. Potency is read from the fitted curve at half-maximal effect. An excerpt (hit frequency here may not be typical).

SMILES | ClpP mod
O=C(CCn1c(=O)c2cccn2c2cccnc21)NCc1ccccc1F | -14%
Cc1c(Cl)ccc2sc(N3CCN(C(=O)c4ccco4)CC3)nc12 | -1.4%
O=c1c2oc3ccccc3c2n(Cc2cccc(C(F)(F)F)c2)c(=O)n1Cc1ccc2c(c1)OCO2 | -9.3%
Cc1ccccc1Cn1c(CCCNC(=O)C2CCCCC2)nc2ccccc21 | 0.2%
Cc1ccc(CNC(=O)C2CCCN(S(=O)(=O)c3cccc4nsnc34)C2)cc1 (centres undefined) | 1.9%
COc1ccc(-c2noc(-c3ccc(N4CCN(C)CC4)c([N+](=O)[O-])c3)n2)cc1 | -1.6%
Cc1nn(C(C)C(=O)NC2CCC(C)CC2)c(=O)c2cc3sccc3n12 (centres undefined) | -6.0%
Cc1ccc(NC(=O)/C(C#N)=C/c2ccccc2Cl)cc1C | -1.5%
CC1=C(C(=O)Nc2ccc(C)cc2C)C(c2ccccc2)n2ncc(C(=O)Nc3ccccc3)c2N1 (centres undefined) | -25%
Cc1ccc2[nH]cc(C(c3ccccc3)c3ccc(Cl)s3)c2c1 (centres undefined) | -5.7%
CCCCN(CCCC)CC(O)Cn1cc(/C=C/C(=O)c2ccccc2)c2ccccc21 (centres undefined) | -1.5%
CCS(=O)(=O)c1nc2ccccc2n1CC(=O)Nc1ccccc1C(=O)OC | 49%
COc1ccc(N2CCN(C(c3ccccc3)c3nnnn3C(C)C)CC2)cc1 (centres undefined) | -2.9%
COc1ccc(C(=O)n2nc(N)c3cc4ccc(C)cc4nc32)cc1OC | -0.5%
Cc1ccccc1CN1c2ccccc2-c2nc(SCC(=O)c3ccc(Cl)cc3)ncc2S1(=O)=O | -5.9%
Cc1c(C(=O)N2CCC(C)CC2)c(S(=O)(=O)NCc2ccc(Cl)cc2)c(C)n1C | 1.9%
CCCCCCCCN1C(=O)[C@H](CC(=O)N2CCCC2)C[C@@]2(C(=O)OCC)CCCC=C12 | -3.3%
Cc1ccc(CN(C(=O)COc2ccc([N+](=O)[O-])cc2)c2ccccn2)o1 | 1.6%
Fc1ccc(-n2ncc3c(NCCCc4ccccc4)ncnc32)cc1 | 25%
COc1ccc2oc(=O)c(-c3nc(-c4ccc(C)c(C)c4)cs3)cc2c1 | -5.1%
COc1ccccc1N1CCN(C(=O)CCc2c(C)nn(-c3ccc(N4CCCC4)nn3)c2C)CC1 | -2.0%
CCOC(=O)Cn1c(=O)n(C2CCCCC2)c2nc(-c3c(F)cccc3Cl)nc(C(N)=O)c21 | 3.9%
[O-][N+]12CCCc3cccc(c31)CCC2 | -10%
CCOC(=O)COc1ccc(CC)cc1C(=O)c1ccn2nc(-c3ccc(Cl)cc3)cc2n1 | -6.8%
COc1cccc(NC(=O)N(Cc2cn(C)c3ccccc23)C2CCCCCC2)c1 | -12%
CCOc1ccc(S(=O)(=O)NCCc2c(C)[nH]c3c(Cl)cccc23)cc1C | -0.3%
COc1ccc(S(=O)(=O)c2c(Nc3ccc(C)cc3C)sc(C(=O)c3ccc(F)cc3)c2N)cc1 | -8.1%
COc1ccc(CCNc2nc3c(-c4cccc(F)c4)nnn3c3ccccc23)cc1OC | -24%
COC(=O)[C@@]12C[C@@H](CC(=O)NCC3CCCCC3)C(=O)N(Cc3ccccc3)C1=CCC(C)(C)C2 | -5.0%
COc1ccc(NCc2cccn2-c2nnc(N3CCC(C)CC3)s2)c(OC)c1 | -1.2%

Of the compounds above, 3 contain a thiophene ring, fused or not.
SMILES | ClpP mod
Cc1nn(C(C)C(=O)NC2CCC(C)CC2)c(=O)c2cc3sccc3n12 (centres undefined) | -6.0%
Cc1ccc2[nH]cc(C(c3ccccc3)c3ccc(Cl)s3)c2c1 (centres undefined) | -5.7%
COc1ccc(S(=O)(=O)c2c(Nc3ccc(C)cc3C)sc(C(=O)c3ccc(F)cc3)c2N)cc1 | -8.1%

(listing goes on)
SMILES | ClpP mod
COc1ccccc1CNC(=O)c1cc(Sc2cccc(Cl)c2)nc2ccccc12 | ?
CCOC(=O)c1cccc(NC(=O)CCc2c(C)nc3cc(-c4ccc(Cl)cc4)nn3c2C)c1 | ?
CCc1ccc(NC(=O)CSc2nnc3[nH]c(=O)cc(-c4ccccc4)n23)cc1 | 4.6%
COC(=O)c1ccc(-n2c(/C=C/c3cc(OC)c(OC)c(OC)c3)nc3cc(Cl)ccc3c2=O)cc1 | 0.6%
CCC1=C(c2ccc(C)cc2)S(=O)(=O)N=C1N1CCC(C(=O)NCc2ccc(N(C)C)cc2)CC1 | -9.7%
CCC(CC)C(=O)Nc1cccc(-c2nc3cccnc3s2)c1 | ?
Cc1cc(C)c(S(=O)(=O)NCc2csc(-c3ccccc3)n2)c(C)c1 | -19%
Cc1ccc(NC(=O)N2CCc3c(sc4c3CCCC4)C2c2ccccc2)cc1F (centres undefined) | -0.5%
CC1=C(C(=O)OCC(C)C)C(c2ccc(OCc3ccccc3)cc2)N2C(=O)CCSC2=N1 (centres undefined) | -8.7%
CCN(c1ncnc2c1cnn2-c1cccc(Cl)c1)C1CCCCC1 | -24%
CCCCCCCCCc1conc1C(=O)CP(=O)(OC)OC | -0.7%
CSc1ncc(Cl)c(C(=O)Nc2c(C(=O)Nc3cccc(Cl)c3)oc3ccccc23)n1 | -5.4%
O=C(NCC(F)(F)F)C1C(=O)Nc2ccccc2C(=O)N1Cc1ccccc1 (centres undefined) | -2.2%
CCc1ccc(NC(=O)CCS(=O)(=O)c2ccc3c(c2)n(C)c(=O)c(=O)n3C)cc1 | -3.1%
CCOc1cccc(CC(=O)Nc2ccc3nc(N4CCCCC4)cc(C)c3c2)c1OCC | 4.9%
O=C1[C@H](Cc2ccccc2)NC/C=C\C[C@@H](c2ccco2)N1Cc1ccccc1 | 2.3%
COc1ccc(-n2c(=O)c3c(c4cc(OC)ccc4n3C)n(CCC(C)C)c2=O)cc1 | 4.1%
COc1ccc(CCN2C(=O)CCC2(C)c2nnnn2-c2ccc3c(c2)OCCO3)cc1OC (centres undefined) | -0.1%
O=C(NCCc1ccccc1Cl)c1ccc2c(=O)n(-c3ccccc3)c(=O)[nH]c2c1 | ?
CCC(=O)N1CCc2cc(S(=O)(=O)CCC(=O)Nc3ccc(Cl)c(C(F)(F)F)c3)ccc21 | 5.0%
CCOc1ccc(NC(=O)Cn2ccn3nc(-c4ccc(OC)c(OC)c4)cc3c2=O)cc1 | 4.5%
CCc1ccc(-n2c(Cc3ccccc3)nnc2SCc2nc(-c3cccs3)no2)cc1 | -3.1%
O=C(CCNS(=O)(=O)c1ccc2c(c1)CCN2C(=O)C1CC1)N1CCN(c2ccc(F)cc2)CC1 | -2.9%
CC1(C)O[C@H]2[C@@H](O1)[C@@H](C(=O)Nc1ccccc1O)O[C@@H]1OC(C)(C)O[C@@H]12 | -2.3%
CC1(C(=O)NC2CCCCC2)Cc2ccccc2C(=O)N1Cc1ccccc1Cl (centres undefined) | 32µM*
COC(=O)c1cccc(CN2C(=O)SC(Nc3ccc(Cl)cc3)C2=O)c1 (centres undefined) | -4.0%
CC1CCN(C(=O)CSc2n[nH]c(-c3ccc(F)cc3)n2)CC1 | 0.9%
Cc1cc2n(n1)CCC(=O)N2Cc1ccc(C(=O)Nc2cc(Cl)ccc2C)cc1 | -3.4%
COc1ccc(-c2cc(C(F)(F)F)n3nc(C(=O)OC(C)C)cc3n2)cc1 | -3.3%
CCCCCCn1cc(CN2CC(N(C)CCC)CS2(=O)=O)nn1 (centres undefined) | -0.2%

Shown with each value named: part of the list above.
> Cc1ccc(NC(=O)N2CCc3c(sc4c3CCCC4)C2c2ccccc2)cc1F (centres undefined)
  ClpP mod = -0.5%
> CC1=C(C(=O)OCC(C)C)C(c2ccc(OCc3ccccc3)cc2)N2C(=O)CCSC2=N1 (centres undefined)
  ClpP mod = -8.7%
> CCN(c1ncnc2c1cnn2-c1cccc(Cl)c1)C1CCCCC1
  ClpP mod = -24%
> CCCCCCCCCc1conc1C(=O)CP(=O)(OC)OC
  ClpP mod = -0.7%

Next part.
SMILES | ClpP mod
CC1=C(C(=O)Nc2ccccc2C)C(c2cccs2)n2nc(SCc3cc(C)ccc3C)nc2N1 (centres undefined) | -3.5%
Cc1ccc(S(=O)(=O)N2CCc3cc(C(=O)Nc4ccc(Cl)cc4C)ccc32)cc1 | -2.3%
CCc1ccc(NCc2cc3ccc(OC)cc3n(CC(=O)Nc3ccc(F)cc3F)c2=O)cc1 | -1.0%
Cc1ccc(-c2nnc(Nc3ccccc3)c3ccccc23)cc1S(=O)(=O)N1CCN(C)CC1 | -1.8%
CC(=O)N1CCC2(CC1)OC(=O)C(C)=C2C(=O)Nc1cccc(Cl)c1C | -5.5%
O=C(Nc1ccc(F)c(F)c1)c1cnn2c1NC(=C1CC1)C=C2C(F)(F)F | -1.3%
CCc1cccc(C)c1NS(=O)(=O)c1c(C(=O)N2CCC(C)CC2)c(C)n(C)c1C | -0.5%
Cc1ccc(CNC(=O)Cn2c(=O)n(-c3ccc(Cl)cc3)c(=O)c3c(C)c(C)sc32)cc1 | -1.8%
COc1ccc(N2C(N)=C(C#N)C(c3cc(CN4CCOCC4)cs3)C3=C2CCCC3=O)cc1 (centres undefined) | 0.7%
COc1ccccc1NC(=O)CSc1oc(-c2cccs2)nc1S(=O)(=O)c1ccc(C)cc1 | -11%
CC1=C(C(=O)Nc2c(C)cc(C)cc2C)C2(CCN(C(C)C)CC2)OC1=O | 0.3%
COc1ccc(-c2nc3c(C#N)c[nH]n3c2NC2CCCC2)c(OC)c1 | -2.5%
O=C(NCc1ccccc1)C(=O)NCC(c1ccc2c(c1)OCO2)N1CCOCC1 (centres undefined) | -3.8%
CCC(=O)N1c2ccccc2CC1C(=O)NCCN1CCN(c2cccc(Cl)c2)CC1 (centres undefined) | 1.4%
CC(=O)c1c(C)n(S(=O)(=O)c2ccc(Cl)cc2)c2ccc(NS(=O)(=O)c3ccc(Cl)cc3)cc12 | -0.2%
CCOC(=O)c1cccc(NC(=O)CN2C(=O)c3ccccc3Sc3ncccc32)c1 | -0.2%
CCn1cc(C(=O)NCc2ccc(Cl)cc2)c(=O)c2cc(S(=O)(=O)N(C)C3CCCCC3)ccc21 | -9.6%
CNC(=O)c1c(NC(=O)c2cc(=O)c3cc(C)c(C)cc3o2)sc2c1CCCC2 | -0.2%
O=C(CCC1N=C2c3ccccc3N=C(SCc3ccc(Cl)cc3)N2C1=O)N1CCN(c2ccccc2)CC1 (centres undefined) | -2.9%
COc1ccc(CCNC(=O)CSc2nc(-c3ccc(F)cc3)cc(C(F)(F)F)n2)cc1OC | 1.4%
CCc1ccc(CN(Cc2cn[nH]c2-c2ccc(OC)cc2)C(=O)Nc2ccc(Br)cc2)cc1 | 0.6%
COc1ccc(S(=O)(=O)c2cn(Cc3ccccc3)c3cc(F)c(F)cc3c2=O)cc1 | -4.2%
O=C(Nc1cccc(C(F)(F)F)c1)C1CCN(S(=O)(=O)c2cccc3nsnc23)CC1 | 4.6%
COc1ccc(C(=O)OCc2cc(=O)n3nc(C4CC4)sc3n2)cc1OC | -4.1%
Nc1c(C(=O)Nc2ccccc2F)sc2nc3c(cc12)CCCCCC3 | 4.0%
CC(=O)c1ccc(NC(=O)c2nc(-c3ccccc3)n(-c3ccc(Cl)cc3)n2)cc1 | -2.7%
CSCCC(NS(=O)(=O)c1ccc2c(c1)oc(=O)n2C)C(=O)NCCc1ccc(C)cc1 (centres undefined) | -2.9%
CCOc1ccc2nc(NC(=O)c3nc(SCc4ccccc4C)ncc3Cl)sc2c1 | -3.1%
O=C(NCc1ccccc1)C(c1ccc(-c2ccccc2)cc1)N1CCN(CCN2CCOCC2)CC1 (centres undefined) | 1.5%
Cc1ccc(Cl)cc1NC(=O)c1cc(CN2CCCC2)on1 | -1.3%
Cc1cccc(C)c1NC(=O)c1cc2sccc2n1Cc1ccc(F)cc1 | -0.3%
COc1cccc2cc(S(=O)(=O)c3ccc(F)c(C)c3)c(=O)oc12 | -0.2%
COCCn1c(SCC(=O)c2ccc(C)cc2)nc2cc(C(=O)NC3CCCC3)ccc2c1=O | -1.2%
COC(=O)c1ccccc1NC(=O)CSc1nc(C)c(Cl)c(C)c1C#N | ?
CC(C)c1ccc(S(=O)(=O)c2cnc(SCC(=O)Nc3ccc4c(c3)OCCO4)[nH]c2=O)cc1 | -1.6%
COc1ccc(-n2cnc3cc(C(=O)NCCC4=CCCCC4)ccc32)cc1 | -1.3%
CC(=O)c1cccc(NC(=O)[C@H](Cc2ccccc2)N2Cc3ccccc3C2=O)c1 | -1.4%
Oc1c(C(c2ccccc2Cl)N2CCC(O)CC2)sc2nc(-c3ccco3)nn12 (centres undefined) | -2.5%
COc1cccc(-c2nc(S(=O)(=O)c3ccc(C)cc3)c(N3CCCCC3)o2)c1 | -26%
O=C(O)C#CC(=O)O | 0.8%
O=C(CCC1N=C2c3ccccc3N=C(SCC(=O)Nc3ccc(F)cc3)N2C1=O)NCc1ccco1 (centres undefined) | 1.5%
Cc1c(C)n(Cc2ccccc2)c2ccc(C(=O)N3CCN(c4ccccc4F)CC3)cc12 | -22%
Cc1ccc2ncc(C(=O)c3ccc(C)c(C)c3)c(S(=O)(=O)c3ccc(F)cc3)c2c1 | -2.0%

Bioassay records (PubChem)
